# Rango dissoc inh – qHTS Assay for Inhibitors of RanGTP induced Rango (Ran-regulated importin-beta cargo) - Importin beta complex dissociation | Biochemical FRET Rango-importin beta, RanGTP-induced dissociation | hit rate 0.071% among 340,000 | Potency, µM (doses to about 46.1 µM), without a hit: at the highest dose activity change, negative = inhibition; active means falling FRET ratio curve, often poorly fitted, with flat reads before Ran was added; inconclusive means other falling curves, or compound fluorescence or quenching; inactive means flat or rising ratio curve;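 also: potency is read from the fitted curve at half-maximal effect; % of control where 0% means no effect; nearly all actives have a fitted effect of over 45% in size; -100% = wells without RanGTP and RCC1; the record marks most hits as doubtful in a second field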
#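 Rango FRET biosensor (snurportin-1 IBB flanked by N-terminal EYFP and C-terminal CFP10) at 0.1 uM, with 0.25 uM importin beta in PBS, 1mM DTT, 0.02% Tween-20, 0.1% BSA. 0.6 uM Ran, 2mM GTP and 0.2 uM RCC1 were then added for 45 min at room temperature. Inhibition read as loss of FRET rise.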
# Rango-impB inh – qHTS Assay for Inhibitors of Rango (Ran-regulated importin-beta cargo) - Importin beta complex formation; Importin subunit beta-1 (Homo sapiens), Q14974; Rango CFP/YFP FRET sensor + importin beta, 45 min; hit rate 0.031% among 340,000; Potency, µM (doses to about 92.2 µM), for the others: at the highest dose inhibition of complex formation; active = rising FRET ratio curve, often small or poorly fitted; inconclusive = mostly compound fluorescence or quenching in the first reads; inactive = flat curves in all reads;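 also: potency is read from the fitted curve at half-maximal effect; 0% = DMSO wells and 100% = buffer wells lacking importin beta; nearly all actives have a fitted effect of over 15% in size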
#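 FRET biosensor Rango (snurportin 1 IBB between N-terminal EYFP and C-terminal Cerulean), 50 nM in PBS/1 mM DTT/0.02% Tween-20/0.1% BSA, preincubated 5 min RT with compound; 0.125 microM importin beta added, 45 min RT, CFP/YFP FRET ratio read.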
# GLA inh pH 4.5 – qHTS Assay for Inhibitors of Human alpha-Galactosidase at pH 4.5; purified enzyme, 4-MU-alpha-Gal fluorescence, pH 4.5; 230,000 tested, under 10 active; activity change, negative = inhibition, % at 105 µM; AID 1467, 2008; Alpha-galactosidase A (Homo sapiens), P06280; inconclusive = small, poorly fitted or top-dose-only inhibition, or a rising curve; inactive = flat fitted curve, though single readings scatter; no compound was filed as active;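 also: 0% = full activity with enzyme and -100% = basal without enzyme; dose as in the result columns while the protocol names 77 µM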
# Target sequence (P06280 whole entry, looked up): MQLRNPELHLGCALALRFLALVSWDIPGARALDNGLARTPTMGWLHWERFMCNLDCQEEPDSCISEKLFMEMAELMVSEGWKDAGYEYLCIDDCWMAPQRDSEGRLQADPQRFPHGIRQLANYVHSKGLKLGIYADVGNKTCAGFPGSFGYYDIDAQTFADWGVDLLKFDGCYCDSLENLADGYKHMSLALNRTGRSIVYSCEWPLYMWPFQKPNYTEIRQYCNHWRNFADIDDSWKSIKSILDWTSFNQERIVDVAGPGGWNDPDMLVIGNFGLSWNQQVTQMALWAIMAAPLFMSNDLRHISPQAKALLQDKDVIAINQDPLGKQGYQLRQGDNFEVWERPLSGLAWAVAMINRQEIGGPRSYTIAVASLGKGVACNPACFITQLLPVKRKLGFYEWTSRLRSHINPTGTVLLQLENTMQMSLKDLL
# miR-21 FLuc – qHTS Assay for Modulators of miRNAs and/orActivators of miR-21 | Potency, µM (series often up to 38.3 µM), for the others: at the highest dose reporter change, positive = more light | AID 2288, 2010 | HeLa miR-21 FLuc reporter, luciferase, 48 h | 340,000 tested, under 10 active; active = well fitted rising curve with a large enough effect; inconclusive = small, poorly fitted or top-dose-only effect; inactive = no such curve, though single readings can be large or run the other way;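 also: % of control where 0% means no effect; miR-21 action dims this reporter so a rising signal means less miR-21 action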
#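 HeLa miR-21-FLuc reporter line, endogenous miR-21; 2000 cells/well in DMEM/10% FBS; compound titration up to ~40uM final, 48 h, 37 degree Celsius; luciferase detection reagent, 15 min lysis, CCD luminescence.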
# An asterisk follows results filed as active; ? = inconclusive; nt = no result given. The list is partial; count on the stated rates, not on these rows.
# Values run as follows: Rango dissoc inh	Rango-impB inh	GLA inh pH 4.5	miR-21 FLuc
CCc1ccc(NC(=O)C2C3C=CC(C4CC34)C2C(=O)O)cc1 (centres undefined)
    1%	3.8%	-8	-23%
O=C(c1ccccc1O)N1N=C(c2ccccc2)CC1(O)C(F)(F)F (centres undefined)
    -24%	0.9%	-10	-1%
O=C(NC1CCCCCCC1)C1=COCCO1
    1%	-0.5%	6	-28%
CCCC(=O)Nc1cc(OC)c(NC(=S)Nc2ccc(CC)cc2)cc1OC
    -4%	0.1%	nt	nt
C[C@]12C=C[C@H](O)CC1=CCC1C2CC[C@@]2(C)C1CCC21OCCO1 (some centres undefined)
    9%	2.0%	nt	nt
Cn1c(N)c(C(=O)COC(=O)/C=C/c2cccc(F)c2)c(=O)n(C)c1=O
    -5%	1.0%	nt	nt
COc1ccccc1CNc1ncnc2cc(Cl)ccc12
    3%	-1.2%	6	-3%
CCOc1ccc(CCNC(=O)c2ccc3c(=O)[nH]c4c(C(=O)NC(C)C)sc(=S)n4c3c2)cc1
    -10%	2.3%	nt	-2%
Cc1ccccc1NS(=O)(=O)c1ccc(C(=O)N2CCN(c3ccccn3)CC2)cc1
    19%	-5.3%	-20	9%
Cc1cc2c(ncn2C)c(NS(=O)(=O)c2ccc(Cl)cc2)c1C
    1%	6.2%	0	-1%
CCOC(=O)c1sc(NC(=O)C(CC)Sc2nc3ccccc3[nH]2)nc1C (centres undefined)
    16%	-0.9%	nt	nt
Cc1ccc(C(=O)O)cc1-c1ccc(C=C2C(=O)c3ccccc3C2=O)o1
    -6%	?	1	-9%
Fc1ccc(-c2nnn(Cc3ccccc3Cl)n2)cc1
    0%	0.3%	nt	-39%
NNC(=O)C1CC1c1ccccc1 (centres undefined)
    -6%	1.9%	5	-1%
CN(C)CCCN(C(=O)COc1ccccc1)c1nc2ccc(F)cc2s1
    1%	-3.0%	0	-16%
CNC(=O)/C(=C\c1ccc([N+](=O)[O-])cc1)NC(C)=O
    1%	-0.9%	-4	-1%
Cc1ccc2c(c1)N(CCC(=O)NCCN1CCOCC1)C(=O)CO2
    5%	1.8%	2	-2%
CCOC(=O)/C=C1\CC(C(=O)OCC)Oc2ccccc21 (centres undefined)
    -8%	0.4%	-4	nt
CCC(C)NC(=O)CS(=O)Cc1nc(-c2ccccc2C)oc1C (centres undefined)
    -8%	-2.6%	-12	-3%
COC(=O)CSc1c(-c2ccccc2)c2cc(Cl)ccc2[nH]c1=O
    20%	-3.0%	-4	5%

# Sorted by the number under Rango dissoc inh (lowest first): three from the list above.
# Values run as follows: Rango dissoc inh	Rango-impB inh	GLA inh pH 4.5	miR-21 FLuc
O=C(c1ccccc1O)N1N=C(c2ccccc2)CC1(O)C(F)(F)F (centres undefined)
    -24%	0.9%	-10	-1%
Fc1ccc(-c2nnn(Cc3ccccc3Cl)n2)cc1
    0%	0.3%	nt	-39%
COc1ccccc1CNc1ncnc2cc(Cl)ccc12
    3%	-1.2%	6	-3%

# Next part:
# Values run as follows: Rango dissoc inh	Rango-impB inh	GLA inh pH 4.5	miR-21 FLuc
COCCCNc1nc2c(c(=O)[nH]c(=O)n2C)n1CCCc1ccccc1
    0%	0.0%	-11	-8%
O=C(O)c1ccccc1-c1ccccc1C(=O)Nc1cccc(-c2nc3ccccc3o2)c1
    17%	-0.7%	-7	-46%
CN(CCC1CCCCO1)C(=O)CCc1nnc(CCc2ccccc2)o1 (centres undefined)
    14%	0.4%	nt	-28%
N#CC(C#N)=NNc1ccc([N+](=O)[O-])cc1
    6%	0.4%	-9	11%
CCc1ccc(OCCCCCn2ccnc2)cc1
    0%	1.6%	nt	7%
O=C(CSC1c2ccccc2C(=O)N1c1ccccc1)N1CCOCC1 (centres undefined)
    -1%	-4.8%	0	-7%
Cc1ccccc1OCc1nnc(SCC(=O)Nc2ccc3nc(SCC(=O)Nc4ccccc4)sc3c2)n1C
    -9%	3.4%	6	-20%
COc1ccc2oc3cc(C)[n+]([O-])c(-c4ccc(C)cc4)c3c2c1
    -3%	0.3%	-2	18%
Cc1cc(C(=O)N/N=C/c2ccc(-c3cccc([N+](=O)[O-])c3)o2)n[nH]1
    2%	0.3%	nt	-2%
COc1ccc(N2C(=O)C(F)(F)C2c2cccc(F)c2)cc1 (centres undefined)
    -16%	-0.6%	-7	-3%
Cc1ccccc1NC(=O)c1ccc2nccnc2c1
    -1%	0.0%	nt	-21%
CCOC(=O)CSc1nc(C)nc2c1sc1nc(C)c(C(C)=O)c(-c3ccc(OC)cc3)c12
    3%	-2.2%	1	-5%
CCCCN(C)C(=O)CCC(=O)Nc1ccc2nc(N3CCOCC3)cc(C)c2c1
    -16%	?	25	-22%
O=C(COc1ccccc1O)c1cccs1
    -14%	-2.5%	1	-10%
CC(C)[C@H](NC(=O)NCc1cccs1)C(=O)O
    -1%	-5.4%	5	-3%
CCn1cc(C(=O)OCC(=O)Nc2cccc(C)c2)c(=O)c2ccc(C)nc21
    -8%	0.5%	nt	1%
COc1ccc(CCC(=O)N2CCN(c3ccc(OC)cc3)CC2)cc1
    -8%	0.2%	nt	2%
COc1ccc(N(CC(=O)N2CCOCC2)S(C)(=O)=O)cc1OC
    -6%	-1.4%	nt	1%
COc1ccc(OCCn2cncn2)cc1
    2%	-2.7%	6	0%
N#Cc1ccc(NC(=O)COC(=O)c2ccc(F)c(S(=O)(=O)N3CCOCC3)c2)cc1
    ?	-1.5%	nt	nt

# Structures listed so far containing an aryl thioether with sulfur outside any ring:
# Values run as follows: Rango dissoc inh	Rango-impB inh	GLA inh pH 4.5	miR-21 FLuc
CCOC(=O)c1sc(NC(=O)C(CC)Sc2nc3ccccc3[nH]2)nc1C (centres undefined)
    16%	-0.9%	nt	nt
COC(=O)CSc1c(-c2ccccc2)c2cc(Cl)ccc2[nH]c1=O
    20%	-3.0%	-4	5%
Cc1ccccc1OCc1nnc(SCC(=O)Nc2ccc3nc(SCC(=O)Nc4ccccc4)sc3c2)n1C
    -9%	3.4%	6	-20%
CCOC(=O)CSc1nc(C)nc2c1sc1nc(C)c(C(C)=O)c(-c3ccc(OC)cc3)c12
    3%	-2.2%	1	-5%

# (continued)
# Values run as follows: Rango dissoc inh	Rango-impB inh	GLA inh pH 4.5	miR-21 FLuc
Cc1ccc2nc(-c3ccc(NC(=O)CN(c4ccccc4C)S(C)(=O)=O)cc3)sc2c1
    -26%	?	4	-11%
Nc1nnnn1/N=C\c1ccc(Cl)c([N+](=O)[O-])c1
    16%	2.7%	3	1%
O=C(NN=C1CCCC1)c1ccc(Br)cc1
    -11%	4.5%	nt	-8%
Cc1oc2ccc(O)c(CN3CCOCC3)c2c1C(=O)c1ccc(Cl)cc1
    -3%	2.3%	-4	19%
O=C(NCc1cnc2ccccn12)C1CCC(=O)N(Cc2ccccc2F)C1 (centres undefined)
    -3%	0.8%	nt	-3%
CN1C[C@@H]2[C@@H]3C(=O)N(Cc4ccccc4)C(=O)[C@@H]3[C@](Cc3ccccc3)(C1=O)N2C(=O)c1ccc(Cl)c(Cl)c1
    -6%	3.8%	nt	nt
CC(C)CCc1noc(CN2CCC(CCN3CCCC3=O)CC2)n1
    10%	0.3%	nt	-13%
NNC(=O)c1cn2ccccc2n1
    34%	-2.8%	-1	-31%
Cc1nc(NC(=O)c2ccc(Br)o2)sc1C
    -15%	-0.1%	-2	-28%
COc1ccc(NC(=O)COC(=O)CN2C(=O)NC(C)(C)C2=O)cc1
    -2%	-1.3%	nt	nt
Cc1c(C(c2ccccc2)c2c(C)n(C)n(-c3ccccc3)c2=O)c(=O)n(-c2ccccc2)n1C
    9%	-2.4%	nt	-1%
O=C(/C=C/c1ccc(OC(F)F)cc1)OCC(=O)N1CCC(c2ccccc2)=N1
    32%	-0.1%	nt	nt
CCCS(=O)(=O)N1CCC(C(=O)N2CCOCC2)CC1
    0%	0.4%	-7	-1%
O=c1cc(NCC2CCCO2)[nH]c(=O)n1-c1ccc(Cl)cc1 (centres undefined)
    12%	1.2%	3	-15%
NS(=O)(=O)c1ccc(CCNCC(=O)NCc2ccccc2Cl)cc1
    1%	6.5%	nt	-2%
CC(C)NC(=O)c1noc2cc([N+](=O)[O-])ccc12
    -15%	0.6%	4	-22%
Cc1ccc(S(=O)(=O)N2CCC(=O)N(C(COCc3ccc(Cl)cc3)C(C)C)CC2)cc1 (centres undefined)
    1%	-0.1%	-11	-1%
CC(=O)c1cccc(NC(=O)C(C)OC(=O)CN2C(=O)NC(C)(C)C2=O)c1 (centres undefined)
    0%	0.3%	nt	nt
O=C1NC(=Nc2ccccc2)SC1(CO)CO
    16%	3.8%	nt	1%
O=C(CC(=O)OCc1ccccc1)OCc1ccccc1
    2%	-1.8%	nt	nt
O=C(CSc1nnc(CNC(=O)c2c(F)cccc2Cl)o1)NCc1ccc(F)cc1
    28%	-1.4%	nt	5%
COc1ccc(-c2cc(C(F)(F)F)n3nc(C(=O)N4CCCCC4)cc3n2)cc1OC
    ?	?	2	-7%
CC(=O)Nc1ccc(NC(=O)CSc2nnc3ccc(-c4ccccn4)nn23)cc1
    3%	3.6%	nt	nt
CC(=O)Nc1ccc(/C=C/C(=O)c2ccc3c(c2)OCCO3)cc1
    -13%	?	nt	5%
Cn1c2ccccc2c2nnc(SC3CCOC3=O)nc21 (centres undefined)
    8%	-6.1%	-1	2%
CC(C)(O)C#Cc1ccc(CN2CCN(C3CCCC3)C(CCO)C2)cc1 (centres undefined)
    1%	0.5%	0	-3%
CCOC(=O)C1CCCN(S(=O)(=O)c2cccc3nsnc23)C1 (centres undefined)
    -3%	2.5%	nt	2%
Cc1cccc(NC(=O)CSc2nnnn2C)n1
    -10%	0.7%	-18	-2%
O=C(COc1ccccc1)N/N=C/c1ccc(O[C@@H]2O[C@H](CO)[C@@H](O)[C@H](O)[C@H]2O)cc1
    -1%	0.2%	-4	-16%
Cc1ccsc1CNn1cnnc1SCc1ccccc1F
    5%	-6.3%	6	-14%
O=C(NCc1ccccc1)c1ccc(S(=O)(=O)NCc2ccco2)cc1
    -6%	-3.9%	nt	0%
CC[C@@H]1C/C=C\Cc2ccccc2[C@@H](C(=O)C[C@@H](O)CC(C)=O)OC1=O
    -27%	-0.6%	nt	nt
COc1ccc(NS(=O)(=O)c2cc(NC(=O)/C=C/c3ccccc3OC)ccc2N2CCCCC2)cc1
    -13%	6.5%	-9	-7%
O=C1[C@H](Cc2ccccc2)NCCCC[C@@H](c2ccc(Cl)cc2)N1Cc1ccccc1
    13%	-0.3%	nt	nt
O=C(CSc1nnc(-c2cccs2)o1)NCC1CN(Cc2ccccc2)CCO1 (centres undefined)
    -11%	7.4%	-2	-8%
COC(=O)c1c(NC(=O)C(C)(C)C)sc2c1C(C(=O)OC)CC2 (centres undefined)
    -10%	-2.1%	9	-8%
CC1CCCC(NC(=O)CN2CCN(S(=O)(=O)c3cccs3)CC2)C1C (centres undefined)
    -1%	-0.7%	nt	nt
CC(=O)c1c(C)[nH]c(C(=O)Nc2nc(-c3ccc(Cl)cc3)cs2)c1C
    1%	-3.9%	8	-4%
O=C(C(=O)N(Cc1ccccc1)Cc1ccccc1)c1c(-c2ccccc2)[nH]c2ccccc12
    -20%	-2.7%	nt	nt
CCOC(=O)c1c(NC(=O)C2C3CCC(O3)C2C(=O)O)sc2c1CCC(CC)C2 (centres undefined)
    -4%	0.0%	4	6%
Cc1ccc(C2(C)NC(=O)N(CC(=O)Nc3ccccc3N3CCCC3)C2=O)cc1 (centres undefined)
    -14%	0.4%	nt	nt

# Screens as filed in PubChem.
